High-throughput results from PubChem BioAssay.
LT uptake inh – qHTS Assay for Anthrax Lethal Toxin Internalization; Cells, anthrax lethal toxin internalization, FRET ratio (460/530); Potency, µM (series often up to 40 µM), without a hit: top-dose activity change, negative = inhibition, usual class: inhibitors; hit rate 0.67% among 70,000; AID 912, 2007; active = well fitted falling ratio curve with the 530 nm signal flat; inconclusive = other ratio curves, or a change in one channel alone; inactive = flat curves in the ratio and both channels; the % refers to the ratio; note: % is set by controls: 0 for no effect and ±100 for the full control effect; nearly all actives have a fitted effect of over 50% in size; tested in ME-180 cells; beta-lactamase reporter
SmPrx2 inh – Schistosoma Mansoni Peroxiredoxins (Prx2); hit rate 0.07% among 65,000; Potency, µM; S. mansoni Prx2 activity coupled to TGR/GSH (TGR is thioredoxin glutathione reductase), NADPH fluorescence loss, qHTS; some inactives read as strong as hits; active means full or partial inhibition curve with a strong effect at the top dose; inconclusive means weaker partial or single-point curve; inactive means no accepted curve; note: series up to 57 µM; many of its hits are not listed in these tables
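Purified S. mansoni TGR and Prx2 in pH 7.4 phosphate buffer with EDTA and Tween-20 were preincubated with compounds for 15 min. Further NADPH/GSH was added, then a 2.5 mM H2O2 aliquot initiated turnover, followed kinetically by NADPH fluorescence.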
* marks the source's active call; other numbers are inactive results; ? = inconclusive; nt = no result given; & = joins results of further samples; [ ] = dose if it differs, or a comment. Potency is the fitted concentration of half-maximal effect. Only part of the results is shown; rates above refer to the full screens.

smiles	LT uptake inh	SmPrx2 inh
C=C(C)C(O)/C=C/C=C/c1ccccc1 (stereo not given)	-8%[8 µM]	nt
COc1cccc(-c2nc(CS(=O)CC(=O)NCc3ccc4c(c3)OCO4)c(C)o2)c1 (stereo not given)	-9%	>57
CCC(=Nc1ccc2c(c1)CCC2)c1c(O)n(C2CCCCC2)c(=O)[nH]c1=O	-1%	>57
COc1ccc(Cn2nnnc2C(c2ccc(F)cc2)N2CCN(C3CCCC3)CC2)cc1 (stereo not given)	?	>57
Cn1c(C(=O)NCCCN2CCN(c3cccc(Cl)c3)CC2)cc2c(=O)n(C)c3ccccc3c21	?	>57
CCc1ccc(C2C(C#N)=C(N)SC(N)=C2C#N)s1	10µM*	>57
CNc1nc(-c2ccoc2)nc2ccccc12	0%	>57
O=C(c1ccco1)N1CCC2(CC1)CCN(c1cccc(-c3ccccc3)c1)CC2	0%	>57
COc1ccccc1NC(=O)C1=C(C)Nc2ncnn2C1c1cccs1 (stereo not given)	?	>57
Cc1ccccc1-c1ccc2ncnc(NCc3cccnc3)c2c1	?	>57
CC(NC(=O)Nc1ccc(F)cc1F)c1ccncc1 (stereo not given)	-2%	>57
CCN(CC)c1ncnc2c1ncn2[C@@H]1O[C@@H](COP(=O)(O)OP(=O)(O)C(Br)(Br)P(=O)(O)O)[C@H](O)[C@@H]1O	4%	>57
CS(=O)(=O)N(CC(=O)N1CCN(Cc2ccccc2)CC1)C1CCCCC1	-6%	>57
Cc1ccccc1-c1nc(NC2CC2)c2ccccc2n1	2%	>57
COCCn1c(=O)c(-c2cc(F)cc(F)c2)nc2cnc(N3CCNCC3)nc21	?	>57
O=C(Cc1nn[nH]n1)NCCC1=CCCCC1	7%	>57
CC(c1ccco1)N(C(=O)COc1ccc(Cl)cc1)c1ccccn1 (stereo not given)	?	>57
CCOC(=O)N1CCN(c2ncnc3nc[nH]c23)CC1	4%	>57
O=C(Cc1ccccc1)Nn1cnc2ccccc21	3%	>57
O=C(Cn1nnc2ccccc21)C1CC1	-4%	>57
Cc1ccc(NC2=NC(c3ccc(O)cc3)n3c(nc(C)cc3=O)N2)cc1 (stereo not given)	-3%	>57
CC(C)OCCCn1c(=NC(=O)c2ccncc2)c(C#N)cc2c(=O)n3ccccc3nc21	?	nt
CCN1C(C)=C(C(=O)OC)C(c2ccccc2)N2C(=O)[C@](O)(C(=O)OC)CC(C#N)=C12 (stereo not given in full)	5%[8 µM]	nt
Cc1nc2oc3ccccc3c(=O)c2c(=O)n1Cc1ccccc1	-13%	>57
NC(N)=NOCC[C@H](N)C(=O)O	1%	>57&>57&>57
CN(C1CCCCC1)S(=O)(=O)c1ccc2c(c1)c(=O)c(C(=O)NCCCN1CCCC1)cn2C	?	>57
CCCCCCCCCCCOC(=O)c1ccccc1C(=O)OCCCCCCCCCCC	12%	nt
Cc1cc(NC(=O)Cn2c(=O)c3c(ncn3CCC(C)C)n(Cc3ccccc3)c2=O)no1	4%	>57
CC1CC(C)CN(C(=O)C(NS(=O)(=O)c2ccc3c(c2)oc(=O)n3C)C(C)C)C1 (stereo not given)	-6%	>57
Cc1nc(SCC(=O)NCc2ccc3c(c2)OCO3)c(C#N)c2c1CCCC2	5%	>57
c1cc(C2CCCCC2)ccc1Oc1nc(N2CCOCC2)nc(N2CCOCC2)n1	3%	>57
OC(c1cccs1)c1nccc2ccccc12 (stereo not given)	-5%	>57

Single records, from the list above.
Cc1cc(NC(=O)Cn2c(=O)c3c(ncn3CCC(C)C)n(Cc3ccccc3)c2=O)no1 reads LT uptake inh = 4%; SmPrx2 inh = >57
CCCCCCCCCCCOC(=O)c1ccccc1C(=O)OCCCCCCCCCCC reads LT uptake inh = 12%; SmPrx2 inh = nt
Cc1nc(SCC(=O)NCc2ccc3c(c2)OCO3)c(C#N)c2c1CCCC2 reads LT uptake inh = 5%; SmPrx2 inh = >57

New compounds follow:
smiles	LT uptake inh	SmPrx2 inh
Cc1noc(C)c1-c1nccc(N2CCOCC2)n1	?	>57
COc1ccc2c(c1)CC1(CN2C)C(=O)NC(=O)N(CCc2ccccc2)C1=O (stereo not given)	?	>57
Cc1cccc(CNc2ncncc2-c2ccccc2Cl)c1	-12%	>57
Cc1nc2nc(CSc3nnc(C)s3)cc(=O)n2[nH]1	2%	>57
CCCCOc1ccc(C(=O)NC)cc1	1%	>57
COc1ccccc1CN(CC(=O)NCC1CCCO1)C(=O)CNS(=O)(=O)c1ccc(C)cc1 (stereo not given)	?	>57
Cc1cnc(C(=O)Nc2ccc(C(=O)N(C)C3CCCCC3)cc2)cn1	-15%	>57
CCOc1nc(OCC)nc(N2CCC(C)CC2)n1	12%	>57
CCOc1ccc(CC(=O)NCc2cn3c(C)csc3n2)cc1	-8%	>57
COc1ccc(NC(=O)C2CC(c3cc(OC)c(OC)c(OC)c3)=NO2)cc1OC (stereo not given)	-3%	>57
CCCCC(c1nnnn1CCOC)N1CCN(c2cccc(OC)c2)CC1 (stereo not given)	0%	>57
Cc1oc(-c2ccccc2F)nc1CS(=O)CC(=O)N1CCC2(CC1)OCCO2 (stereo not given)	-3%	>57
O=C(c1cc(S(=O)(=O)N2CCOCC2)ccc1F)N1CCC2(CC1)OCCO2	3%	>57
O=C(O)C1CCCCC1C(=O)Nc1ccccn1 (stereo not given)	-2%	>57
O=C(O)c1cc(O)ccc1-c1ccc(O)cc1	1%	>57
COCCNS(=O)(=O)c1ccc2c(c1)C(=O)c1cc(S(=O)(=O)NCCOC)ccc1-2	-3%	nt

For convenience, part of the list above:
smiles	LT uptake inh	SmPrx2 inh
C=C(C)C(O)/C=C/C=C/c1ccccc1 (stereo not given)	-8%[8 µM]	nt
COc1cccc(-c2nc(CS(=O)CC(=O)NCc3ccc4c(c3)OCO4)c(C)o2)c1 (stereo not given)	-9%	>57
CCC(=Nc1ccc2c(c1)CCC2)c1c(O)n(C2CCCCC2)c(=O)[nH]c1=O	-1%	>57

The list goes on.
smiles	LT uptake inh	SmPrx2 inh
CCc1ccccc1N1C(=O)C2CC=CCC2C1=O (stereo not given)	-9%	nt
CC(=O)c1c(C)n(-c2ccccc2)c2ccc(O)cc12	2%	>57
CC(C)(C)c1ccc(OC(=O)Nc2ccc(O)c(C(=O)O)c2)cc1	?	>57
Cn1cccc1Cc1nnc(SCC(=O)NC2CCCC2)n1CCc1ccccc1	-4%	>57
CCN(CC(=O)NC1CCS(=O)(=O)C1)c1nc(-c2ccccc2)nc2ccccc12 (stereo not given)	13%	>57
O=[N+]([O-])c1cccc(I)c1	?	nt
O=C(c1ccc(N2CN(C(=O)c3ccco3)c3nc4ccccc4nc32)cc1)N1CCOCC1	9%	>57
CCOC(=O)N1CCN(S(=O)(=O)c2ccc(C)cc2)C1c1ccccc1 (stereo not given)	?	nt
CCOC(=O)NC(Nc1ncccn1)(C(F)(F)F)C(F)(F)F	-11%	nt
COc1ccc2cc(C3(C)NC(=O)N(CC(=O)NCc4ccco4)C3=O)ccc2c1 (stereo not given)	-15%	>57
CC(=O)O[C@@H]1C(=O)[C@@]2(C)[C@H](O)C[C@H]3OC[C@]3(OC(C)=O)[C@@H]2[C@H](OC(=O)c2ccccc2)[C@@]2(O)C[C@H](OC(=O)[C@@H](O)[C@@H](NC(=O)c3ccccc3)c3ccccc3)C(C)=C1C2(C)C (stereo in doubt)	?	>57&>57
CCc1ncc(C(O)c2cccc3ccccc23)n1C (stereo not given)	7%	>57
OC1CCN(c2ncnc3nc[nH]c23)CC1	4%	>57
O=C(Cn1c(-c2cncs2)nc2ccccc21)NCCc1ccccc1	-28%	>57
CC(C)(Oc1ccc([C@@H]2CC2(Cl)Cl)cc1)C(=O)O	-18%[3.58 µM]	>57&>57
CCOc1cccc(OCCCCN2CCCCC2)c1	nt	>57
COC(=O)CN(c1ccccc1)S(=O)(=O)c1ccc(F)cc1	-19%	>57
O=c1c2nnn(Cc3ccccc3)c2ncn1-c1ccccc1	1%	>57
Cc1cc(C)n(-c2ccc(C(=O)N3CCc4ccccc43)cc2)n1	10%	>57
COc1ccc(-c2nnc(SCC(=O)NCc3ccco3)o2)cc1	12%	>57
CCCCN1C(=O)/C(=C2\SC(N3CCCCC3)=NC2=O)c2ccccc21	?	>57
O=c1c(-c2ccc(F)c(F)c2)nc2cncnc2n1C1CC1	-11%	>57
CCC(=O)c1cn(Cc2ccccc2C#N)c2ccccc12	-11%	>57
C=CCn1cc(C(=O)NCCCOCC)c(=O)c2cc(S(=O)(=O)N(CC)CC)ccc21	8%	>57
CCOC(=O)Cc1csc(NC(=O)c2ccco2)n1	-5%	>57
CC(C)(O)CCC(C)(C)O	0%	nt
CCS(=O)(=O)N(C)[C@@H]1c2cc(C#N)ccc2OC(C)(C)[C@H]1O	4%&-11%	>57&>57
COc1cc(NC(=O)CSc2nnc(C)s2)cc(OC)c1	8%	>57
CC(C)(C)c1ccc(OCC2CO2)cc1 (stereo not given)	-2%	nt
CCS(=O)(=O)N1CCC(C(=O)NCc2ccc(F)cc2)CC1	?	>57
CC1CCCN(C(=O)C2CCN(CCCc3ccccc3)CC2)C1 (stereo not given)	-8%	>57
COc1ccc2cc3cc(C(=O)NCCN4CCN(Cc5ccccc5)CC4)oc3nc2c1	-11%	>57

Two entries picked at random from those above, as already listed:
smiles	LT uptake inh	SmPrx2 inh
CC(C)(O)CCC(C)(C)O	0%	nt
COc1cc(NC(=O)CSc2nnc(C)s2)cc(OC)c1	8%	>57

Further records follow:
smiles	LT uptake inh	SmPrx2 inh
CC[C@@H]1CN2CCc3cc(OC)c(OC)cc3[C@H]2C[C@@H]1C[C@@H]1NCCc2cc(OC)c(OC)cc21	nt	>57
Nc1cc(Cl)ccc1O	12%	nt
Clc1ccc(-c2nnc3sc(-c4ccc(Br)o4)nn23)cc1	-6%	>57
CCNc1nnc(-c2ccc(C)cc2)o1	-1%	>57
Cn1c(SCc2cccnc2)nc2cccnc21	-2%	>57
Cc1c(NC(=O)C2CCCN(S(=O)(=O)c3cnc[nH]3)C2)c(=O)n(-c2ccccc2)n1C (stereo not given)	1%	>57
COCCCN(C(C)=O)c1nc(-c2ccc(OC)cc2)cs1	-11%	>57
CCc1cccc(CC)c1NC(=O)CSc1nnc(C(C)C)n1CC	-13%	>57
O=C(NC1(C(F)(F)F)NC(=O)N(C2CCCCC2)C1=O)c1cccs1 (stereo not given)	-16%	>57
O=C(Cc1cccs1)Nc1ccc(C(=O)O)cc1	6%	>57
COc1ccc(N2CCCCn3c2nc2c3c(=O)[nH]c(=O)n2C)cc1	-1%	>57
C#CC1(O)CC(C)NCC1(C)CCC#N (stereo not given)	-7%	>57
COc1cc(C2C(C(C)=O)=C(O)C(=O)N2CCc2ccc(OC)c(OC)c2)ccc1O (stereo not given)	-1%	>57
CCOc1ccc(NC(=O)CCS(=O)(=O)c2cccc3nsnc23)cc1	-3%	>57
O=C(O)COc1ccc(Br)cc1/C=N/O	-25%	>57
CSC1=NCCN1C(=O)c1ccc(S(=O)(=O)N2CCOCC2)cc1	-8%	>57
Clc1ccccc1Cn1nnc(-c2cccs2)n1	?	>57
Cc1[nH]nc2c1C(c1ccc(F)cc1)C(C#N)=C(N)O2 (stereo not given)	?	>57
COc1ccc(S(=O)(=O)N(C)c2ccc(C(=O)NCC3CCCO3)cc2)cc1 (stereo not given)	-6%	>57
Nc1c(C(O)(C(F)(F)F)C(F)(F)F)ccc2ccccc12	-25%	>57
C=C(C)CSc1nnc(-c2ccc(OC)c(OC)c2)n1N	-7%	>57
O=C(O)CNC(=O)c1ccccc1F	1%	>57
CCOC(=O)C1CCN(c2ncnc3nc[nH]c23)CC1	12%	>57
[O-]/[N+](=C/c1ccc(F)cc1)c1ccccc1	3%	>57
c1ccc(CNc2ncncc2-c2cccnc2)cc1	3%	>57
C[C@@H](C(=O)Cc1ccc2ccccc2c1)[C@@H]1C[C@@]1(C)[C@@H](NP(=O)(c1ccccc1)c1ccccc1)c1ccccc1	?	>57
Cc1ccc2oc(C(=O)Nc3c(C)n(C)n(-c4ccccc4)c3=O)c(C)c2c1	-8%	>57
Cc1ccc2c(c1)N(CCC(=O)N1CCC3(CC1)OCCO3)C(=O)CO2	3%	>57
O=C(Nc1ccc2c(c1)OCO2)Nc1cnccn1	-12%	>57
CCCCC(=O)Nc1ncc(Br)s1	4%	>57
C=CCN1CC(O)=C(c2ccccc2)C1=N	-14%	>57
Cc1noc(COc2ccc(OCc3nc(C)no3)cc2)n1	6%	nt
